PrP UTR inh: inhibition of PrP 5' UTR reporter expression. cell-based PrP 5' UTR mRNA reporter, plate reader. inhibition, % (no concentration beside the values). 340,000 tested, 0.35% active. AID 488862, 2010;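 active = every replicate at 50% or more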;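 also: 0 = median of the neutral control wells; tested in H4 reporter cells; numbers are from one replicate; inactives centre near -14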
Sa RN4220 lethal: growth inhibition of S. aureus RN4220, primary screen, OD600; 16 h; inhibition, % (test concentration not listed); 330,000 tested, 0.33% active;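 active = z-score of -3 or lower and OD600 up to 0.18 on both plates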;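 also: plate controls were untreated cells for no effect and reference antibiotic for full effect; stock transfer was 100 nL into about 80 µL; one replicate is shown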
ugtP null kill: growth inhibition of ugtP-null S. aureus, primary screen, RN4220 ugtP deletion, OD600 | 16 h; some inactives read as strong as hits | growth inhibition, % (test concentration not listed) | AID 1259309, 2017 | 330,000 tested, 0.54% active;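 active = z-score under -3 and OD600 up to 0.15 on both plates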;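 also: plate controls were untreated wells for no effect and antibiotic for full effect; wells of about 80 µL received 100 nL stock; the first replicate is given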
Mtb hypoxia inh: PubChem AID 1159583 | M. tuberculosis hypoxia-regulated fluorescent reporter, fluorescence | fluorescence inhibition, % (no concentration beside the values) | 300,000 tested, 0.1% active;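 active = 35 to 45% if threefold the growth effect, above 45% if 1.5-fold the growth effect; inactive = the rest, general growth blockers included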;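 also: wells of about 50 µL received 100 nL stock; 0% = vehicle wells and 100% = reference inhibitor wells; whole bacteria with a GFP reporter of the hypoxia response; strong numbers were not always called active; many hits fall short of the cut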
Bead autofluor: counter-screen for toxin protease inhibitors: compound fluorescence | compound autofluorescence counterscreen, microsphere flow cytometry; stronger effect = higher value | 360,000 tested, 3.1% active | fluorescence intensity (concentration not given with the values) | AID 624483;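 active = at least 3 SD above the mean of all compounds, about 16000 in these data; inconclusive = too few beads counted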;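 also: 100 nL of 1 mM stock went into each well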
BJeLR lethal: MLPCN primary cell-based screen for lethality selective to Ras in HRASV12 cells. BJeLR (HRASV12) viability, CellTiter-Glo ATP luminescence, 48 h; reference of the scale not given here. inhibition, % (test concentration not listed). 300,000 tested, 0.17% active;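 active = replicate mean above 50%; inconclusive = above 50% but judged a plate artefact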;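 also: 50 nL library stock added to about 25 µL; numbers are from one replicate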
Mtb hypoxia inh growth: further read-out of Mtb hypoxia inh, marked with its call; growth inhibition, %; measured here: M. tuberculosis growth (absorbance);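 0% = vehicle and 100% = reference antibiotic; read after six days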
Starred values were filed as active, the others as inactive; ? = inconclusive; nt = not tested or not shown.

SMILES	PrP UTR inh	Sa RN4220 lethal	ugtP null kill	Mtb hypoxia inh	Mtb hypoxia inh growth	Bead autofluor	BJeLR lethal
Cc1cc(C)nc(N/N=C/C2=C(N3CCOCC3)C(=C\c3ccc(Cl)cc3)/CC2)n1	-25	nt	nt	nt	nt	2082	0
CC(=O)c1c(C)[nH]c(=S)c(C#N)c1-c1ccc(Cl)cc1	nt	4.4	7	-1	6	4550	0
COCC(=O)N(Cc1cc2ccc(C)cc2[nH]c1=O)c1ccccc1C	-13	4.3	6	8	5	3599	4
Cc1cccc(NC(=O)CN2CCSc3ccccc32)c1	-24	2.6	6	10	7	3502	0
CN(C1CCS(=O)(=O)C1)S(=O)(=O)c1ccc2ccccc2c1 (centres undefined)	-10	1.3	-2	-9	8	5864	0
O=C1CCC(C(=O)N(CCO)Cc2ccccc2)CN1CCCN1CCOCC1 (centres undefined)	-13	2.6	3	5	1	4347	4
Cc1ccc2c(c1)[C@@H]1CN(C)CC[C@@H]1N2S(=O)(=O)c1ccc(F)cc1	-5	nt	nt	nt	nt	3887	6
COc1ccc(/C=N\NC(=O)c2sccc2C)cc1Cn1nc(C)cc1C	-5	nt	nt	nt	nt	6831	-6
O=C(CN1CCOCC1)N/N=C/C=C/c1ccccc1	-12	nt	nt	nt	nt	2175	4
O=C(NCc1ccco1)c1cccc(S(=O)(=O)N2CCOCC2)c1	nt	2.1	6	5	6	11119	-3
O=C(O)c1cccc(N=NN2CCOCC2)c1	3	3.8	2	4	-1	3702	-5
CCC1(CC)NC(=O)N(CC(=O)OCC(=O)NC(=O)c2ccccc2)C1=O	-26	9.9	5	-6	5	4495	29
Nc1nc(=S)[nH]c2c1C1(CCCC1)Cc1ccccc1-2	6	-1.4	6	nt	nt	2813	17
COC(=O)c1ccc(Cn2nc(C)c(Br)c2C)cc1	-8	-7.0	-1	nt	nt	4687	2
CCOc1ccccc1N(CC(=O)N(C)Cc1ccccc1)S(=O)(=O)c1ccccc1	-5	5.9	-5	9	10	6618	-2
CC(=O)c1c(C)[nH]c(C(=O)N(C)CC(=O)Nc2ccc(Cl)c(C(F)(F)F)c2)c1C	3	2.2	-2	2	-2	5566	0
O=C(NNc1ccccc1[N+](=O)[O-])Nc1cccc(Cl)c1	-25	nt	nt	nt	nt	3368	1
Cc1ccc(-c2nc3ccccc3[nH]2)cc1NC(=O)c1sc2cc(Cl)ccc2c1Cl	-17	8.1	1	8	11	2243	-1
CCOc1ccccc1OCCCC(=O)Nc1cccc(S(=O)(=O)N2CCOCC2)c1	-20	0.5	3	26*	56*	8069	nt
CC(=O)Nc1ccc(NS(=O)(=O)c2ccc3[nH]c(=O)[nH]c3c2)cc1	-6	-2.1	-3	-2	-3	1982	-9
CCOC(=O)c1noc(C)c1C(=O)Nc1cccc(F)c1	-9	1.0	0	nt	nt	4438	-4
CCC(Sc1nc(-c2ccccc2)c(C#N)c(=O)[nH]1)C(=O)Nc1nnc(C)s1 (centres undefined)	-18	9.9	4	nt	nt	2334	16
CC(=O)c1ccc(-c2ccc(C(=O)NC3CC(C)(C)NC(C)(C)C3)o2)cc1	-26	-2.3	2	-2	9	?	-4
CC1(C)CN=C(c2ccccc2)NC1	-21	4.2	8	8	7	3959	nt
COCCN1C(=O)c2ccc(C(=O)NCc3ccco3)cc2C1=O	-11	3.0	6	7	-5	4229	-8
O=S(=O)(c1ccc(Br)s1)N1CCCCC1	-4	-2.2	-10	-2	4	8029	-17
O=C(OCCOc1ccc(Br)cc1)c1ccc(Cl)nc1	4	4.2	3	-1	11	4332	-7
Cc1cc(C)n(-c2cc(C(C)(C)C)nc3c(-c4ccccc4)cnn23)n1	-93	-7.4	31	1	1	6163	2
CCC(NC(=O)COc1cc2c(c3oc(=O)c(C)c(C)c13)CCC(C)(C)O2)C(=O)O (centres undefined)	-33	0.3	19	4	5	3512	-16
Cc1cc(-c2ccccc2)nc(N(C)NC(=O)c2c(F)cccc2F)c1S(C)(=O)=O	26	-0.1	2	nt	nt	2767	-6
CCC1(c2ccc(F)cc2)NC(=O)N(CC(=O)Nc2ccc(C)c(S(=O)(=O)N3CCOCC3)c2)C1=O (centres undefined)	-14	0.5	-2	10	8	3388	0
Cc1cc[n+](Cc2ccccc2)c(N)c1	-8	-1.6	-2	-1	7	3960	-2
O=[N+]([O-])c1ccc2c(c1)nc1n2CCN(c2ccccc2)C1	-40	4.8	3	-5	-3	4192	0
CC(C)(C)NS(=O)(=O)c1ccc(Oc2ncc(C(F)(F)F)cc2Cl)cc1	-17	2.6	-3	2	-3	3340	-7
Cc1c(C(=O)NCC(c2ccco2)N2CCCC2)oc2ccc(Cl)cc12 (centres undefined)	-13	-5.9	-3	-6	-9	4955	4
CC(C)CN(C(=O)CN1CCN(c2ccccc2F)CC1)c1c(N)n(CC(C)C)c(=O)[nH]c1=O	-7	3.0	3	6	2	2520	-12
CCn1cc(C(=O)N2CCCCC2)c(=O)c2cc(S(=O)(=O)N3CCC(C)CC3)ccc21	-49	7.1	-7	-5	8	9174	-5
COc1ccccc1N(C)S(=O)(=O)c1ccc(C(=O)OCC(=O)N2CCCCCC2)cc1	7	1.1	4	8	13	4153	1
CN(C)/C=C(\C=O)c1c(Cl)cccc1Cl	-7	7.9	2	13	1	2199	-3
O=C1CCc2cc(S(=O)(=O)NC(C(=O)NCc3cccnc3)c3ccccc3)ccc2N1 (centres undefined)	-15	-1.7	7	nt	nt	5078	nt
CC(=O)c1cccc(NC(=O)COC(=O)Cc2ccc(Cl)cc2)c1	-2	1.3	1	-1	-7	?	nt
O=C1N/C(=N/N=C/c2ccccc2)SC1(c1ccccc1)c1ccccc1	-12	nt	nt	nt	nt	9619	3
Cc1nc2ccccc2c(=O)n1NC(=O)C1CC1C (centres undefined)	-9	7.2	13	8	7	4789	-1
CCN(CC)S(=O)(=O)c1ccc(OC)c(NC(=O)c2ccc3c(c2)OCO3)c1	-17	12	1	0	-3	4493	-3
COc1ccc2c(c1OC)C(=O)OC2N1C(=O)CC[C@H]1C(=O)Nc1ccc(F)cc1F (some centres undefined)	-57	1.5	4	nt	nt	5331	-8
O=C(NCCc1ccccc1)Nc1ccc2c(c1)OCO2	-84	0.2	4	13	6	2312	-1
O=C1CCc2cc(S(=O)(=O)NC(Cc3ccccc3)C(=O)N3CCN(c4ccccn4)CC3)ccc2N1 (centres undefined)	-4	3.4	9	1	5	3300	-5
CC/C(=N/Nc1ccccc1Cl)c1cnnc(-c2ccccc2)n1	-18	nt	nt	nt	nt	9303	8
O=C(c1ccc(-c2cccc(C(F)(F)F)c2)o1)N1CCCC(C(F)(F)F)C1 (centres undefined)	-15	5.7	5	-2	1	6946	-3
CCOc1ccccc1NC(=O)c1ccc2c(=O)n3c(nc2c1)CCCCC3	0	-4.5	-14	-6	-6	5575	-12
Cn1cc([N+](=O)[O-])c(C(=O)Nc2ccc3c(C(F)(F)F)cc(=O)oc3c2)n1	-14	3.6	3	7	7	6297	-4
Cc1cc(C)nc(NC(=O)c2c(-c3ccccc3Cl)noc2C)c1	-9	5.6	1	7	-3	2445	9
O=C1c2ccccc2NC(c2cccc(F)c2)N1Cc1ccco1 (centres undefined)	-24	4.4	11	-1	-5	4172	1
COc1cccc2sc3ccc(NCCC4CCCN4C)cc3c(=O)c12 (centres undefined)	-28	4.0	1	1	0	5587	-3
CCc1nn(CC(=O)NCCCN(CC)Cc2ccccc2)c(=O)c2cc3sccc3n12	-10	-3.8	8	17	5	9506	20
C/C(=N\NC(=O)CC1N=C(Cc2ccccc2)NNC1=O)c1ccc(Cl)cc1Cl (centres undefined)	-4	nt	nt	nt	nt	3199	-8
Cc1nc2nc(-c3ccco3)[nH]n2c(=O)c1C	16	2.9	5	-3	-2	7652	0
O=C(CSc1nc2ccccc2[nH]1)N=Nc1c(O)[nH]c2ccccc12	-6	-0.4	-12	7	-5	2005	4
Cn1cnnc1SCC(=O)NN1C(=O)NC(C)(c2ccccc2)C1=O (centres undefined)	-11	1.9	7	8	5	5462	-3
Cc1cccc(NC(=O)NNC(=O)c2ccc3ccccc3c2O)c1	-30	-3.3	-4	9	-6	5801	8

A few values from the results shown.
O=[N+]([O-])c1ccc2c(c1)nc1n2CCN(c2ccccc2)C1 – ugtP null kill = 3
CCOc1ccccc1NC(=O)c1ccc2c(=O)n3c(nc2c1)CCCCC3 – PrP UTR inh = 0

The listing continues.
SMILES	PrP UTR inh	Sa RN4220 lethal	ugtP null kill	Mtb hypoxia inh	Mtb hypoxia inh growth	Bead autofluor	BJeLR lethal
COc1ccc(NC(=S)NCCSc2ccc(Cl)cc2)c(OC)c1	-9	0.0	3	-3	4	3384	4
COc1ccc(C=NNC(=O)c2ccncc2)cc1CN1CCCc2ccccc21	nt	-3.0	-11	nt	nt	nt	nt
CCn1c2ccccc2c2nnc(SCC(=O)NC(CC(C)C)C(=O)OC)nc21 (centres undefined)	-11	2.6	6	20	1	?	-11
CCOC(=O)N1CCC(N2Cc3cccc(C(=O)Nc4ccc(CC)cc4)c3C2=O)CC1	-21	0.4	-12	8	14	9879	-2
O=C1C2C3C=CC(C3)C2C(=O)N1c1ccc(Cc2ccncc2)cc1 (centres undefined)	-13	5.5	12	3	6	3540	9
C#CCOCCOCCOCCNc1nc(N2CCOCC2)nc(N2CCN(C(=O)C(Cc3ccc(O)cc3)n3cc(CCO)nn3)CC2)n1 (centres undefined)	nt	6.1	-4	-2	-1	nt	nt
Cc1nn(C)c(C)c1N=Cc1c(O)ccc2ccccc12	3	5.8	13	11	-2	8145	nt
CCOc1c(Cl)cc(/C=C/C(=O)N(CC)CC(=O)Nc2ccc(NC(C)=O)cc2)cc1OC	20	nt	nt	nt	nt	7131	11
CC(C)c1ccc(/C=N/n2c(COc3ccccc3)n[nH]c2=S)cc1	-15	nt	nt	nt	nt	3901	6
O=C(c1ccc(F)cc1)N(Cc1cccs1)C1CCS(=O)(=O)C1 (centres undefined)	-13	-1.3	-5	1	9	?	-25
CC1CCCC(C)N1C(=O)C1CCCCC1 (centres undefined)	-3	4.6	3	8	11	2526	-3
O=C(C1CC1)N1CCc2cc(S(=O)(=O)N3CCN(c4ccccc4)CC3)ccc21	-12	1.9	2	-5	11	5267	-3
CC12CCC(=O)C=C1CCC1C2CCC2(C)C1CC1C3C(=O)N(Cc4ccccc4)C(=O)C3CC(=O)C12 (centres undefined)	-10	-1.4	-13	3	10	4493	nt
C=C(Cl)COC(=O)[C@H]1C2C=CC(C2)C1C(=O)O (some centres undefined)	0	2.6	1	nt	nt	4173	3

By substructure: the entries above containing an NH in an aromatic ring.
SMILES	PrP UTR inh	Sa RN4220 lethal	ugtP null kill	Mtb hypoxia inh	Mtb hypoxia inh growth	Bead autofluor	BJeLR lethal
CC(=O)c1c(C)[nH]c(=S)c(C#N)c1-c1ccc(Cl)cc1	nt	4.4	7	-1	6	4550	0
COCC(=O)N(Cc1cc2ccc(C)cc2[nH]c1=O)c1ccccc1C	-13	4.3	6	8	5	3599	4
Nc1nc(=S)[nH]c2c1C1(CCCC1)Cc1ccccc1-2	6	-1.4	6	nt	nt	2813	17
CC(=O)c1c(C)[nH]c(C(=O)N(C)CC(=O)Nc2ccc(Cl)c(C(F)(F)F)c2)c1C	3	2.2	-2	2	-2	5566	0
Cc1ccc(-c2nc3ccccc3[nH]2)cc1NC(=O)c1sc2cc(Cl)ccc2c1Cl	-17	8.1	1	8	11	2243	-1
CC(=O)Nc1ccc(NS(=O)(=O)c2ccc3[nH]c(=O)[nH]c3c2)cc1	-6	-2.1	-3	-2	-3	1982	-9
CCC(Sc1nc(-c2ccccc2)c(C#N)c(=O)[nH]1)C(=O)Nc1nnc(C)s1 (centres undefined)	-18	9.9	4	nt	nt	2334	16
CC(C)CN(C(=O)CN1CCN(c2ccccc2F)CC1)c1c(N)n(CC(C)C)c(=O)[nH]c1=O	-7	3.0	3	6	2	2520	-12
Cc1nc2nc(-c3ccco3)[nH]n2c(=O)c1C	16	2.9	5	-3	-2	7652	0
O=C(CSc1nc2ccccc2[nH]1)N=Nc1c(O)[nH]c2ccccc12	-6	-0.4	-12	7	-5	2005	4
CC(C)c1ccc(/C=N/n2c(COc3ccccc3)n[nH]c2=S)cc1	-15	nt	nt	nt	nt	3901	6

Compounds were not picked by outcome; any-hit rate near 4%.
